Screens from PubChem BioAssay.
PABP FP inh: PABP poly(A) RNA binding inhibitors, primary screen, biochemical, fluorescence polarization, uHTS; Polyadenylate-binding protein 1 (Homo sapiens), P11940; inhibition, % at 35 µM; 1% of 290,000 active; AID 2014, 2009;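 active means 50% or more with normal probe brightness, or confirmed in later tests; inconclusive means above 50% with abnormal brightness, or retests that disagree; inactive means below 50% or failed in later tests; about a fifth of its hits are not listed in these tables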;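 further: calls also rest on retests at 20 µM and on dose response follow-up; controls were probe without protein and protein plus probe with vehicle; some compounds called inactive have numbers as strong as hits; many hits fall short of the cut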
Target sequence (P11940 whole entry, looked up): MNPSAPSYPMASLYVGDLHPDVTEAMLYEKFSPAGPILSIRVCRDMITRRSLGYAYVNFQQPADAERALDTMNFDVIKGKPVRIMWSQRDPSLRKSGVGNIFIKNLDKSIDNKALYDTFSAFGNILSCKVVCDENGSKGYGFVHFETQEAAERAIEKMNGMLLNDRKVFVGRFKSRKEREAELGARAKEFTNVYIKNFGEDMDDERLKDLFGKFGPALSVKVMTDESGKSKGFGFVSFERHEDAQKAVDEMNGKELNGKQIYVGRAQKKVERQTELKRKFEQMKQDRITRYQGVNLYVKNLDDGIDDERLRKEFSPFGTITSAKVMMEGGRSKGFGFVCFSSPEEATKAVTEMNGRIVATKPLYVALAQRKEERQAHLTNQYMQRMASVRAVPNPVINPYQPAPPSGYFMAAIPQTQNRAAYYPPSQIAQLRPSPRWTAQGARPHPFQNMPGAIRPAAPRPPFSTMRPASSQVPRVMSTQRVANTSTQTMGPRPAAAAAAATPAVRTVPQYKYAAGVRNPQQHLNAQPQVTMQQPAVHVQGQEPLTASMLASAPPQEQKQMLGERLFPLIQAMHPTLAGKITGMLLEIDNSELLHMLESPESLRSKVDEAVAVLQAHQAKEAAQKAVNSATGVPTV
Rce1 inhib: yeast Rce1p protease inhibitors, primary screen, biochemical, fluorescence, cell-free homogeneous; AID 2563, 2010; calls only; CAAX prenyl protease 2 (Saccharomyces cerevisiae (strain ATCC 204508 / S288c)), Q03530; yeast membranes, quenched prenylated peptide cleavage fluorescence; 0.27% of 290,000 active;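 active means fall in fluorescence gain of 50% or more versus controls, with final raw signal at or below 3038400; inconclusive means same 50% fall but final raw signal above 3038400; inactive means fall in fluorescence gain under 50%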;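 further: plate controls were neutral control wells for no effect and wells lacking membranes for full effect; tested at 10 µM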
Target sequence (Q03530 whole entry, looked up): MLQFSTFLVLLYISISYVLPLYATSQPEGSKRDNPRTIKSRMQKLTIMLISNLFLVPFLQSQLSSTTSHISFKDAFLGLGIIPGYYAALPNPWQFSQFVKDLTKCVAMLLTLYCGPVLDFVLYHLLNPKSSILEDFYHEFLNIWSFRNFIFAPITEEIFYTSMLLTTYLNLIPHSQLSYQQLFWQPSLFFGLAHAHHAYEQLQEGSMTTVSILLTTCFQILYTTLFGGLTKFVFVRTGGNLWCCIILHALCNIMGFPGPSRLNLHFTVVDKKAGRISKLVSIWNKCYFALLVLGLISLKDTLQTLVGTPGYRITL
MT1-MMP act inh: blockers of MT1-MMP proenzyme processing, primary screen, HT1080 RFP-PRO-GFP cells, GFP/RFP fluorescence. Matrix metalloproteinase-14 (Homo sapiens), P50281. 0.061% of 360,000 active. GFP/RFP ratio change, % at 20 µM. GFP/RFP ratio fluorescence, overnight; percent of plate control window, DMSO zero. AID 651647, 2012;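 active means GFP/RFP ratio change of at least 30% with cell ATP level not reduced by more than half and red fluorescence within 50% of control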; further: strong numbers were not always called active
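Compound: 20 µM single dose, 1% DMSO / System: HT1080 RFP-PRO-GFP cells / Controls: DMSO and RFP-L50D-GFP cell wells / Read-out basis: GFP/RFP fluorescence ratio / Schedule: overnight compound exposure at 37 °C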
CSC inhib: cancer stem cell viability inhibitors, primary screen, luminescence | cancer stem cell-like cells viability | inhibition, % at 7.5 µM | 1.1% of 300,000 active | AID 2717, 2010;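 active means mean at 75% or more and at least half the replicates too; inconclusive means mean and replicates disagree; tested in HMLE shEcad cells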;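 further: 0% = median of negative and 100% = median of positive control wells; the first replicate is given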
Env fusion inh: inhibitors of HIV-1 Env-driven cell-cell fusion, primary screen, HeLa-JRFL effector, CEM21 target cells, luciferase. inhibition, % at 12.3 µM. 1.1% of 360,000 active. AID 651610, 2012;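 active means mean replicate inhibition score of at least 50 and every replicate individually at or above 50; inconclusive means only one of the two criteria met; inactive means mean below 50 and not all replicates reaching 50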;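 further: 0% = plate neutral controls and 100% = maraviroc near 300 nM; one replicate is shown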
eIF4H FP inh: human eIF4H binding inhibitors, primary screen, translation initiation inhibitor project, biochemical, uHTS, fluorescence polarization. eIF4H fluorescence polarization binding assay. inhibition, % at 35 µM. 0.94% of 290,000 active;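 active means 50% or more with normal probe brightness, or confirmed in later tests; inconclusive means above 50% with abnormal brightness, or retests that disagree; inactive means below 50% or failed in later tests; about a fifth of its hits are not listed in these tables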;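 further: calls also rest on retests at 20 µM and on dose response follow-up; 0% = protein and probe with vehicle and 100% = probe without protein; strong numbers were not always called active; many hits fall short of the cut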
UUG fidelity: modulators of yeast start codon fidelity, primary screen, whole organism, S. cerevisiae, single point, plate reader; S. cerevisiae UUG-firefly luciferase reporter, luminescence/redox ratio; activity score, % at 18.7 µM; 0.13% of 350,000 active;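 active means replicate mean at a twofold rise or more, about +100% in these data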;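 further: firefly luciferase made from a UUG start codon reports start codon fidelity; reporter light over untreated wells divided by growth signal over untreated wells; some hits fall short of that in this replicate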
eIF4H FP inh retest: also measured in eIF4H FP inh; calls as there; inhibition, %; compound at 20 µM; confirmation average;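 mean of two retest wells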
PABP FP inh retest: also measured in PABP FP inh; calls as there; inhibition, %; compound at 20 µM; confirmation repeats;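 mean of two retest wells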
MT1-MMP act inh RFP: also measured in MT1-MMP act inh; calls as there; RFP signal change, %; measured here: RFP expression control read;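 0 = vehicle wells; hits needed this value within 50% of zero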
* hit, by the source's call; i = inactive; ? = inconclusive; · = no result given; + = active, no number; & = joins results of further samples. Random draw from the library. About 2.9% of those tested had a hit in this group.

SMILES	PABP FP inh	Rce1 inhib	MT1-MMP act inh	MT1-MMP act inh RFP	CSC inhib	Env fusion inh	eIF4H FP inh	UUG fidelity	others
COc1ccc(-c2cnnn2-c2ccc(N)cc2)cc1OC	-7	i	1	3	-12	-15	-3	-26
O=C(NCCc1ccccc1)c1ccc2c(c1)N(Cc1ccccc1)CCS2	5	i	-1	-3	31	·	-2	-1
COc1ccc(S(=O)(=O)NCC(c2cccnc2)N2CCN(C)CC2)cc1C (stereo unspecified)	-1	i	-7	2	4	·	-2	0
COc1ccc(CCN(C)CC(O)COC(c2ccc(F)cc2)c2ccc(F)cc2)cc1OC (stereo unspecified)	-6	i	-1	-3	-8	46	-2	7
O=C1[C@H]2[C@H](C=CC[C@H]2C(=O)N2CCN(c3ccccc3)CC2)CCN1Cc1ccccc1	·	i	1	-3	-10	-10	·	-2
Cc1nc(C)c(-c2ccc(SCc3ccc(Cl)cc3)nn2)s1	-4	i	1	-5	-3	-5	3	-21
COc1cccc(CN(C)C(=O)CSCC(=O)Nc2cc(C)on2)c1OC	·	i	1	-2	6	-14	·	·
CCOc1ccc(C=Nc2cccc3ncccc23)cc1	-19	i	-2	5	-3	9	?	·
COc1ccc(OC)c(C2C3=C(CC(C)(C)CC3=O)Nc3nnnn32)c1 (stereo unspecified)	-2	i	0	-2	-21	9	5	·
CC1CCCCN1CCCNc1ccc(C(CC(N)=O)NC(=O)Cc2cccc3ccccc23)cc1[N+](=O)[O-] (stereo unspecified)	8	i	-4	1	-11	-12	-5	-2
COc1ccc(CNc2oc(-c3cccc4ccccc34)nc2P(=O)(OC)OC)cc1	-6	?	-1	0	-8	4	40	8
NCCCCCc1nnc(SCc2cccc(Cl)c2)o1	-2	i	0	-1	19	-17	-4	-19
Cc1cc(O)c(C(=O)Cc2csc(C)n2)c(O)c1	-6	i	-1	1	4	-5	0	9
CC(=O)c1cccc(NC(=O)c2ccc(CN3CCc4ccccc4C3)cc2)c1	-4	i	9	-10	-4	18	4	9
Cc1cc(C)nc(Nc2n[nH]c(C)n2)n1	0	i	3	3	0	8	0	·
COCCn1cc(C(=O)NCCCN2CCC(C)CC2)c2c3ccccc3n(C)c2c1=O	5	i	3	1	·	-4	2	24
O=C(CCSCCC(=O)Nc1ccccc1F)Nc1ccccc1F	1	i	-1	3	3	19	9	·
Cc1cc2nc(-c3ccc[nH]c3=O)[nH]c2cc1C	-5	i	3	-1	64	25	-3	-88
CCOC(=O)c1c(NC(=O)CSc2nc3ccccc3o2)sc(C)c1C	12	i	2	-2	7	·	2	·
CC(=O)Nc1ccc(S(=O)(=O)Nc2cccc(-c3nc4ccccc4o3)c2)cc1	8	+	4	-11	31	22	2	3
CS(=O)(=O)N1CCN(c2ccccc2NC(=O)CSc2ccc(Cl)cc2)CC1	4	i	-5	-7	·	·	1	-12
CCN(Cc1cnn(C)c1)C(=O)c1cc(COc2cc(C)c(Cl)c(C)c2)on1	-6	i	-2	0	-4	-8	-12	-6
COc1ccc(/C=N\Nc2ccc([N+](=O)[O-])cc2)c(C(=O)O)c1OC	1	i	-2	4	-16	11	-4	·
COc1ccccc1NCC(=O)NNC(C)C(=O)Nc1cccc(Cl)c1 (stereo unspecified)	-5	i	6	2	-11	32	-1	-16
Cc1cc(C)cc(NC(=O)C2CCN(S(=O)(=O)c3ccc4c(c3)NC(=O)C(C)S4)CC2)c1 (stereo unspecified)	-16	i	1	-3	11	8	-15	-11
(list continues)
SMILES	PABP FP inh	Rce1 inhib	MT1-MMP act inh	MT1-MMP act inh RFP	CSC inhib	Env fusion inh	eIF4H FP inh	UUG fidelity	others
Cc1cccc(NC(=O)c2nc(-c3ccccc3)n(-c3ccccc3)n2)c1C	-4	i	-6	-12	11	·	-2	-19
CC1(C)CC(=O)C(C(=O)/C=C/c2ccco2)C(=O)C1	49	i	-3	3	-11	0	89	·	eIF4H FP inh retest=15;PABP FP inh retest=15
O=C(Nc1ccc2c(c1)OCCO2)C1CC1c1ccccc1 (stereo unspecified)	1	i	-1	0	-3	-38	-4	·
CCOc1cccc2sc(N(CCN(C)C)C(=O)c3ccc4c(c3)OCCO4)nc12	7	i	1	3	-7	-18	-6	25
COc1ccccc1/C=C/C(=O)OCC(=O)NNC(=O)c1ccccc1	9	i	2	3	-10	·	-6	-11
CC(=O)c1cccc(NC(=O)/C(=C\c2cccnc2)NC(=O)c2ccc(C)cc2)c1	-4	i	-4	1	·	6	2	-19
CC1CCCCN1S(=O)(=O)c1ccc2c(c1)CCN2C(=O)C1CC1 (stereo unspecified)	-9	i	6	-1	7	0	-12	-3
CCC(C)C(=O)Nc1nc(C)c(-c2csc(Nc3cc(Cl)ccc3OC)n2)s1 (stereo unspecified)	-1	i	16	-10	-21	7	-3	-12
CC(=O)Nc1nnc(SCC(=O)NCc2ccc3c(c2)OCO3)s1	7	i	-2	2	-21	·	4	-10
CCOC(=O)c1oc2ccccc2c1NC(=O)C(C)(C)C	-1	i	6	-9	-4	5	-1	·
O=C(O)c1ccccc1C(=O)Nc1c(-c2ccccc2)nc2ccccn12	-3	i	0	1	-14	-4	-12	-9
O=C(c1ccc(Br)o1)N1CCN(Cc2ccc3c(c2)OCO3)CC1	-5	i	0	0	-10	-62	-11	-17
C[C@H](CO)N1C[C@H](C)[C@H](CN(C)S(=O)(=O)c2cccc(C#N)c2)OCc2cnnn2CCCC1=O	·	·	0	2	·	-2	·	-9&3
Cc1cc(C)c2nc(Cl)c(CN(Cc3ccco3)C(=O)Nc3ccccc3C)cc2c1	1	i	6	-8	53	·	-3	-5
CC(C)CN(Cc1c(O)ccc2c3c(c(=O)oc12)CCC3)CC(C)C	-4	i	5	0	-5	·	-1	·
Cn1c(=O)c2c(nc(Sc3ncnn3CC(=O)NC(C)(C)C)n2C)n(C)c1=O	-4	i	0	1	-8	-4	2	2
O=C(CNS(=O)(=O)c1ccccc1)N1CCc2ccccc2C1	-6	i	2	-3	-4	18	-2	-9
Cn1cnnc1SCc1cccc(Br)c1	-3	i	1	-3	5	-19	-10	-1
Cc1ccc(S(=O)(=O)N2CCN(C(=O)C3COc4ccccc4O3)CC2)cc1C (stereo unspecified)	11	i	-6	-7	7	8	-7	·
CN(C(=O)c1ccc2c(c1)C(=O)N(CCC1=CCCCC1)C2=O)C1CCCCC1	-9	i	-3	-7	41	26	-3	-1
Cc1ccc(-c2csc3nc(CN(C)Cc4ccccc4)[nH]c(=O)c23)cc1	0.3*	i	-7	-6	34	9	98*	-2	eIF4H FP inh retest=60*;PABP FP inh retest=109*
O=C(OCCNc1ncc(C(F)(F)F)cc1Cl)c1ccc(S(=O)(=O)N2CCOCC2)cc1	-12	i	0	-3	-7	·	-1	-14
O=C(Nc1ccc(C(=O)O)cc1)/C(=C\c1ccccc1)NC(=O)c1ccco1	4	i	2	7	·	14	4	-9
CC1CCCCC12NC(=O)N(CC(=O)Nc1cccnc1)C2=O (stereo unspecified)	·	·	4	2	·	-22	·	-15
COc1ccccc1N1CCN(C(=O)CSc2nnc(C)n2C2CC2)CC1	·	·	9	-1	-15	-11	·	-16

Reprinted at random: 2 entries already listed, in no set order.
SMILES	PABP FP inh	Rce1 inhib	MT1-MMP act inh	MT1-MMP act inh RFP	CSC inhib	Env fusion inh	eIF4H FP inh	UUG fidelity	others
CC1CCCCC12NC(=O)N(CC(=O)Nc1cccnc1)C2=O (stereo unspecified)	·	·	4	2	·	-22	·	-15
CC(=O)Nc1nnc(SCC(=O)NCc2ccc3c(c2)OCO3)s1	7	i	-2	2	-21	·	4	-10

The listing continues:
SMILES	PABP FP inh	Rce1 inhib	MT1-MMP act inh	MT1-MMP act inh RFP	CSC inhib	Env fusion inh	eIF4H FP inh	UUG fidelity	others
CCCc1cc(=O)oc2cc(C)cc(OCC(=O)Nc3ccccn3)c12	3	i	1	-3	0	0	-5	-3
CC(=O)Nc1cccc(OCCCOc2ccc([N+](=O)[O-])cc2)c1	7	i	2	-2	4	-14	11	·
CCc1cc(C(=O)c2ccc(OC)cc2)c(NC(=O)CN2CCCC2)s1	4	i	1	-1	15	28	6	-15
O=C(O)Cn1cnc2c(=S)nc[nH]c21	6	i	1	1	-13	11	2	-9
CC(=O)OC[C@H]1O[C@@H](n2ccc(=O)[nH]c2=S)C(OC(C)=O)C1OC(C)=O (stereo partly specified)	1	i	4	3	1	-46	13	-13
O=C1C2CC=CCC2C(=O)N1c1nccs1 (stereo unspecified)	·	·	10	4	·	-6	·	18
Cc1ccc(S(=O)(=O)N/N=C\c2ccc([N+](=O)[O-])o2)cc1C	8	i	0	3	6	-20	5	-16
Cc1nc(NCc2ccc(S(N)(=O)=O)cc2)c2c(C)c(C)sc2n1	-5	i	-1	-10	11	-12	-8	-17
CCOc1ccccc1NC(=O)CN(c1cc(C)cc(C)c1)S(=O)(=O)c1c(C)noc1C	-16	i	-3	0	-14	-17	-10	-17
CCn1c(SCc2ccc(Cl)cc2)nc2nc3c(cc2c1=O)CCCC3	6	i	6	2	-6	·	13	-10
Cc1cccnc1CC(C)NC(=O)c1cc(COc2cncc(Cl)c2)on1 (stereo unspecified)	0	i	-3	-8	2	-8	-1	-25
COc1ccccc1N(C(=O)c1snc(C(N)=O)c1N)C(C(=O)NCc1ccccc1)c1ccc(C)o1 (stereo unspecified)	18	i	-1	3	·	6	-8	-15
CC(=O)Oc1ccc2c(c1)cc(C)n2C	-3	i	·	·	9	-70	-7	-7
OC(CNCc1ccccc1)c1ccccc1 (stereo unspecified)	0	i	-4	2	-7	-23	1	-10
COc1ccc(CC2(CO)CCN(S(=O)(=O)N(C)C)CC2)cc1	8	i	-1	3	1	-12	0	·
CN(C)S(=O)(=O)c1ccc2oc(SCC(=O)Nc3ccccc3F)nc2c1	13	i	3	-3	-4	-32	-1	·
O=C(O)c1ccc(COc2cccc(CO)c2)cc1	0	i	-8	-2	2	·	-5	-15
CSc1ccc(Cn2nnc(C(=O)Nc3ccc(C)c(C)c3)c2N)cc1	-3	i	6	4	2	-21	-6	-21
CCNC(=S)N1CC(C)OC(C)C1 (stereo unspecified)	-1	i	2	3	-11	-39	6	·
CCCOc1ccc(N2C(=O)C3C(C(C)C)NC4(C(=O)c5ccccc5C4=O)C3C2=O)cc1 (stereo unspecified)	16	i	-10	2	·	-23	12	-18
CCSc1nc(C)cc(C)c1S(=O)(=O)c1ccccc1C	-4	i	-2	1	2	·	-5	-6
CCc1ccccc1S(=O)(=O)c1c(C)cc(C)nc1Cl	-6	i	1	-1	-7	13	-1	-5
COc1ccc(CNC(=O)CN(c2ccc(OC)cc2)S(=O)(=O)c2c(C)[nH]c(=O)[nH]c2=O)cc1	9	i	0	4	·	-3	2	-15
CN(Cc1cn(C)nc1-c1ccccc1F)CC1CCCCO1 (stereo unspecified)	-8	i	3	0	-12	4	-9	·
